# VDR inh: inhibitors of human vitamin D receptor. P11473. VDR-SRC2-3 peptide fluorescence polarization, 2 h. Potency, µM, inactives show max response, negative = inhibition, usual class: inhibitors. 400,000 compounds, 0.93% hits; active = well fitted inhibition curve with a large enough effect; inconclusive = small, poorly fitted or top-dose-only effect, or another doubt; inactive = no such curve, though single readings can be large or run the other way; also: series mostly up to about 120 µM
# Target sequence (P11473 whole entry, looked up): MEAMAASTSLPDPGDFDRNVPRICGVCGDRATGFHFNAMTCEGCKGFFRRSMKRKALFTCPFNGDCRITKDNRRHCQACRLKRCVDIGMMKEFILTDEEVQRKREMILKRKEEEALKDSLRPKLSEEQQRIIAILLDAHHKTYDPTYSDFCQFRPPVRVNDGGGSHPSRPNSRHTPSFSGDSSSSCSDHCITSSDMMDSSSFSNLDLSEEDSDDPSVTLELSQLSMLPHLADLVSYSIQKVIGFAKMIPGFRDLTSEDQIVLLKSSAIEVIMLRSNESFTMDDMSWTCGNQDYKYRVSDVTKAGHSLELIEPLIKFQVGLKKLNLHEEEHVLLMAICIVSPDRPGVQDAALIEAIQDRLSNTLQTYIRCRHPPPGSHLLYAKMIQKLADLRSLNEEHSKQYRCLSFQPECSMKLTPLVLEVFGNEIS
#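 Signal is fluorescence polarization, reporting how far test compounds block the interaction of VDR with the SRC2-3 coregulator peptide after a 2 h room-temperature incubation.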
# * marks the source's active call; other numbers are inactive results; ? = inconclusive; & = joins results of further samples. % is scaled to controls: 0 for no effect and ±100 for the full control effect; potency is read from the fitted curve at half-maximal effect. A portion of the library; the hit share may differ from the screen's.
# Start of the listing, in advance (4 entries):
VDR inh,SMILES
-16%,COc1ccc(N2C(=O)CC(N(CCc3ccccc3)C(=O)/C=C/C(=O)O)C2=O)cc1 (stereo not drawn)
10%,CC(=O)N(Cc1cc(=O)[nH]c2ccccc12)c1ccc(C)cc1
17%,O=C(CNC(=O)c1ccco1)NCC(=O)OCc1ccc(Cl)cc1Cl
-5%,Cc1ccc2[nH]c(O)c(N=Nc3nc4ccccc4s3)c2c1

# Main list, previewed entries included:
VDR inh,SMILES
-16%,COc1ccc(N2C(=O)CC(N(CCc3ccccc3)C(=O)/C=C/C(=O)O)C2=O)cc1 (stereo not drawn)
10%,CC(=O)N(Cc1cc(=O)[nH]c2ccccc12)c1ccc(C)cc1
17%,O=C(CNC(=O)c1ccco1)NCC(=O)OCc1ccc(Cl)cc1Cl
-5%,Cc1ccc2[nH]c(O)c(N=Nc3nc4ccccc4s3)c2c1
-10%,COc1ccccc1-c1sc2ccccc2c1-c1ccc2c(c1)OCCO2
-1%,COc1cccc(C(=O)CSc2nnc(-c3cccs3)o2)c1
?,COc1ccc(-c2csc(NC(=O)c3ccc(C(C)(C)C)cc3)c2C(=O)O)cc1
?,CN1/C(=C\C(=O)c2oc3ccccc3c2N)C(C)(C)c2ccccc21
4%,Cc1coc2cc3oc(=O)c(CCC(=O)NCc4ccccn4)c(C)c3cc12
-9%,O=C(NC1CCN(c2ncccn2)CC1)c1c(F)cccc1F
5%,CCn1cc(CCCC(=O)NCc2cccc(OC)c2)c2ccccc21
2%,C=CCOc1nc(N2CCCC2)nc(N2CCCC2)n1
5%,Cc1ccc(NC(=O)CSc2nnc(C)c(=O)[nH]2)cc1
-4%,O=C(NCc1ccccc1Cl)c1ccc(CSCc2cccc(F)c2)o1
3%,COc1ccc(-c2noc(CCC(=O)N3CCN(c4ccc(C(F)(F)F)cc4)CC3)n2)cc1
-16%,CCCNC(=O)c1ccc(N2CCC3(CC2)CC(c2cccc(Br)c2)=NO3)c(N)c1
11%,O=C(N/N=C\c1ccc(Sc2ccccn2)o1)c1cccc(F)c1
-2%,CC1(C)CC(=O)C2=C(C1)OC(N)=C(C#N)C2CCc1ccccc1 (stereo not drawn)
-12%,CCOc1ncccc1C(=O)Nc1ccc(F)cc1
-4%,CC(C)[C@H](NC(=O)N1CC(=O)Nc2ccccc21)C(=O)N[C@@H](Cc1c[nH]c2ccccc12)C(=O)O
-11%,Cc1c(OCC(=O)NC(Cc2ccc(Cl)cc2)C(=O)O)ccc2c1oc(=O)c1ccccc12 (stereo not drawn)
17%,COc1ccc(CCNC(=O)NC2CCCCC2)cc1OC
-15%,CCNC(=S)Nc1ccc(Cl)c([N+](=O)[O-])c1
5%,CC(=O)c1c(C)[nH]c(C(=O)OCC(=O)NCCc2ccc(F)cc2)c1C
7%,CCOC(=O)C1=C(Nc2cccc(Cl)c2)OCC1=O
-3%,CCCc1[nH]nc2c1C(Cc1ccccc1)C(C#N)=C(N)O2 (stereo not drawn)
-1%,COC(=O)CNC(=O)Cc1c(C)n(C(=O)c2ccc(Cl)cc2)c2ccc(OC)cc12
-16%,Cn1cccc1C(C#N)(CC#N)c1cccc(F)c1C#N (stereo not drawn)
2%,COc1ccccc1C(=O)Oc1ccc(C(C)C)cc1
6%,CN(Cc1cccc([N+](=O)[O-])c1)Cc1cccc2ccccc12
9%,Cc1ccc(OC(=O)c2sc(Cl)nc2C)cc1C
-1%,Cc1c(Cl)c(C(=O)N2CCCc3ccccc32)nn1C
0%,CCSc1ccccc1C(=O)NCc1ccco1
4%,Cc1ccc2ncc3c(-c4ccccc4)nn(CC(=O)NC4CCCCC4)c3c2c1
0%,CN(CC(=O)Nc1ccc(N2CCOCC2)cc1)C(=O)CCc1cc(C(C)(C)C)c(O)c(C(C)(C)C)c1
-15%,COc1cc(/C=N/NC(=O)C(=O)NCC2CCCO2)ccc1OCC(=O)N1CCOCC1 (stereo not drawn)
5%,COc1ccc(N(CC(=O)NCc2ccc3c(c2)OCO3)C(=O)c2csnn2)cc1
-4%,COc1cccc(CN2CCNC(=O)C2CC(=O)NCCN2CCOCC2)c1OC (stereo not drawn)
7%,CC(=O)c1c(C)[nH]c(C(=O)N2CCc3ccccc3C2)c1C
-12%,Cc1cc(NC(=O)c2cccc(S(=O)(=O)N3CCCCCC3)c2)no1
1%,Cc1cc(C)cc(-n2cnc3cc(C(=O)NC4CCCCCC4)ccc32)c1
-21%,CCOc1cccc(OCCCn2c(-c3ccc(Br)cc3)nc3ccccc3c2=O)c1
-8%,CCN(CC)S(=O)(=O)c1ccc2c(c1)c(=O)c(C(=O)N1CCc3ccccc3C1)cn2C
4%,Cc1nc2c3ccccc3nc(NNC(=O)CCC(=O)N3CCN(c4cccc(Cl)c4)CC3)n2n1
14%,CCCC[C@H](CC)CN1CN(C[C@@H](CC)CCCC)CC(C)(N)C1
-1%,COc1ccc(C2=C(C)C(=O)N(Cc3ccc(C(=O)NC(C)c4ccccc4)cc3)S2(=O)=O)cc1 (stereo not drawn)
9%,C=CCSc1nnc(NC(=O)C23CC4CC(CC(NC(C)=O)(C4)C2)C3)s1
-4%,CCOc1cc(N2CCOCC2)c(OCC)cc1NC(=O)CSc1nnc(N)s1
19%,CC(=O)NC1(NC(C)=O)CCN(C)C(c2ccccc2)C1C (stereo not drawn)
-1%,O=C(NCc1ccccc1)C(Cc1ccccc1)NS(=O)(=O)c1cccc2nsnc12 (stereo not drawn)
-15%,COc1cc(/C=N/NS(=O)(=O)c2ccccc2)ccc1OS(=O)(=O)c1ccc(C)cc1
6%,COc1ccc(C2CC(c3ccc([N+](=O)[O-])cc3)=NN2C(C)=O)cc1 (stereo not drawn)
-11%,O=C(CN(Cc1cccs1)S(=O)(=O)c1ccc(S(=O)(=O)NC2CCCCC2)cc1)Nc1ccccc1
14%,O=C(NC(NC(=O)c1ccccc1)c1ccccc1)c1ccccc1
-5%,CN1CCN(c2nc3c(c(=O)n(C)c(=O)n3C)n2CCSc2nc3ccccc3s2)CC1
?,COc1ccc(N2CC(C(=O)Nc3nnc(SCC(=O)NC4CCCC4)s3)CC2=O)cc1 (stereo not drawn)
-12%,Cc1nc2c(cc1C#N)C(=O)c1ccccc1-2
5%,COc1ccc(Nc2ncnc3sccc23)cc1OC
-23%,COc1cc(/C=N/NC(=O)C(=O)Nc2ccccn2)ccc1O
-23%,CCN(CC)CC(=O)Nn1c(C)nc2c(ncn2-c2ccccc2)c1=O

# (more compounds)
VDR inh,SMILES
4%,CCc1cccc(NC(=O)Cn2nc3c4cc(F)ccc4n(Cc4cccc(C)c4)cc-3c2=O)c1
-16%,COc1ccc(C(=O)CSc2nnc(CNC(=O)c3ccc(OC)cc3)n2C)cc1
-14%,CCc1ccc(-n2c(SCC(=O)N3CCC(C(=O)O)CC3)nnc2-c2ccncc2)cc1
6%,Cc1ccc(C(=O)Nc2ncccc2O)cc1S(=O)(=O)N1CCCCC1
-13%,CCn1c(CN2CCN(CCO)CC2)nc2ccccc21
3%,O=c1c2ccccc2sc2ccc(Cl)cc12
?,FC(F)Oc1ccc(NC(=S)Nn2cnnc2)cc1
-22%,CC(C)CCOc1cccc(OCC(=O)NC2CCS(=O)(=O)C2)c1 (stereo not drawn)
-20%,COc1ccc(CNC(=O)[C@@H]2CC=C[C@@H]3CCN(Cc4ccccc4)C(=O)[C@@H]32)cc1
?,CC1CCCC(C)N1C(=O)CSc1nc2ccccc2s1 (stereo not drawn)
4%,CCOC(=O)C1(CCOc2ccccc2)CCN(Cc2ccc(OC)cc2)CC1
6%,CCOc1ccccc1C(=O)N[C@H](C(=O)NNC(=O)c1cccs1)C(C)C
-6%,Cc1nonc1CC(=O)N1CCCC(C(=O)c2ccc(Cl)cc2)C1 (stereo not drawn)
-5%,CCOC(=O)c1cccc(NC(=O)C(C)n2nc(C)c3c(C)n(-c4ccccc4)nc3c2=O)c1 (stereo not drawn)
1%,Cc1c2c(nc3ccccc13)CCC(C)C2 (stereo not drawn)
-16%,CCc1ccc(NC(=O)CSc2nc3c(c(=O)[nH]2)CN(Cc2ccc4c(c2)OCO4)CC3)cc1
-18%,Cc1ccc2c(c1)COc1c3ccc(C(=O)N[C@@H](C)CO)cc3nn1-2
8%,O=S(=O)(Nc1cccc(-c2ccc(N3CCCC3)nn2)c1)c1cc(F)ccc1F
-8%,COc1cccc(CNc2nc3ccccc3c3nc(-c4cccc(C)c4)nn23)c1
7%,CC(C)Cc1cc(C(=O)Nc2cc(Br)ccc2O)no1
1%,CCCn1cnnc1CNC(=O)C1CCC(=O)N(CCc2cccc(F)c2)C1 (stereo not drawn)
-14%,COC1=CCC2([N+](=O)[O-])CN(CC(=O)O)CC1([N+](=O)[O-])C2 (stereo not drawn)
-4%,CCOc1ccccc1NC(=O)C(OC(=O)c1cnccn1)c1ccccc1 (stereo not drawn)
18%,Cc1ccc(CNC(=O)Nc2ccc(F)cc2)n1C
13%,O=C(CCl)Nc1cccc(S(=O)(=O)NC2=NCCCCC2)c1
1%,N#CC(c1ccc(Cl)nn1)c1ccc(Cl)cc1Cl (stereo not drawn)
-10%,CCC1CCCCN1C(=S)NC(=O)c1cccs1 (stereo not drawn)
-6%,COc1ccc(N/C=C/C(=O)c2ccc3c(c2)OCO3)cc1OC
6%&-13%,COCCNc1nc2c(c(=O)n(Cc3cccc(Cl)c3)c(=O)n2C)n1C
-3%,Cc1cc(OC(C)C(=O)N2CCN(c3ccc(F)cc3)CC2)c2c(C)c(C)c(=O)oc2c1 (stereo not drawn)

# A portion of the results above:
VDR inh,SMILES
18%,Cc1ccc(CNC(=O)Nc2ccc(F)cc2)n1C
13%,O=C(CCl)Nc1cccc(S(=O)(=O)NC2=NCCCCC2)c1
1%,N#CC(c1ccc(Cl)nn1)c1ccc(Cl)cc1Cl (stereo not drawn)
-10%,CCC1CCCCN1C(=S)NC(=O)c1cccs1 (stereo not drawn)
-6%,COc1ccc(N/C=C/C(=O)c2ccc3c(c2)OCO3)cc1OC
6%&-13%,COCCNc1nc2c(c(=O)n(Cc3cccc(Cl)c3)c(=O)n2C)n1C
-3%,Cc1cc(OC(C)C(=O)N2CCN(c3ccc(F)cc3)CC2)c2c(C)c(C)c(=O)oc2c1 (stereo not drawn)

# Back to the main list, repeating the 4 entries before the break.
VDR inh,SMILES
-10%,CCC1CCCCN1C(=S)NC(=O)c1cccs1 (stereo not drawn)
-6%,COc1ccc(N/C=C/C(=O)c2ccc3c(c2)OCO3)cc1OC
6%&-13%,COCCNc1nc2c(c(=O)n(Cc3cccc(Cl)c3)c(=O)n2C)n1C
-3%,Cc1cc(OC(C)C(=O)N2CCN(c3ccc(F)cc3)CC2)c2c(C)c(C)c(=O)oc2c1 (stereo not drawn)
50µM*,CCn1c(=S)[nH]c2c(=O)n(C)c(=O)n(C)c21
5%,CCOc1ccccc1NC(=O)NCc1cccnc1
-7%,Cc1ccc(S(=O)(=O)Nc2cc(-c3ccccc3)nn2C)cc1Cl
-5%,COc1ccc(-c2nc(CSCC(=O)NC3CCCc4ccccc43)c(C)o2)cc1 (stereo not drawn)
12%,CC1CCN(CC2CCN(C(=O)NCc3ccc(F)cc3)CC2)CC1
1%,O=C(CNC(=O)c1ccco1)N/N=C/c1ccc(O)cc1O
-5%,O=C(O)c1cccc(OS(=O)(=O)c2cc(Br)ccc2Br)c1
-9%,COc1ccc(C(CC(=O)Nc2ccccc2OC)n2cccc2)cc1 (stereo not drawn)
-14%,COc1ccc2c(Cl)c(C(=O)N/N=C/c3c(C)[nH]c4ccccc34)sc2c1
20%,O=C(NCCc1cccs1)c1ccc(CS(=O)Cc2ccc(Cl)cc2)o1 (stereo not drawn)
-4%,CC1(C)C2CCC1(CS(=O)(=O)Nc1cccc(S(N)(=O)=O)c1)C(=O)C2 (stereo not drawn)
4%,COc1ccc(-c2n[nH]c(=S)n2/N=C/C=C/c2ccccc2OC)cc1
-19%,Cc1ccc(NC(=O)C2CC(=O)Nc3ncnn32)c(C)c1 (stereo not drawn)
-5%,Cc1ccc(CNCC(O)(c2ccc(F)cc2)c2ccc(F)cc2)cc1
-21%,COc1cc2c(C=O)c3c4c(cc(OC)c(OC)c4c2cc1OC)CCN3C
-2%,C/C(=N\NC(=O)C(N)=O)c1ccc(Br)cc1
3%,COc1ccc(C(=O)Nc2ccccc2)cc1S(=O)(=O)Nc1ccc(Br)cc1
5%,CCCCc1nn2c(=O)cc(COC(=O)CNC(=O)COc3ccc(C)cc3)nc2s1
-12%,CCOC(=O)c1c(C)[nH]c(C(=O)CSc2nc3ccccc3o2)c1C
1%&-11%,COc1ccc(NC(=O)CNC(=O)Cn2c(C)cc3ccccc3c2=O)c(OC)c1
1%,O=C(NCc1cccnc1)c1ccc(COc2ccc3c(c2)CCC3)o1
?,CCOC(=O)c1cc2c(=O)c3cc(C)ccc3oc2nc1C
1%,CCOc1cc2sc(N3CCC(C(=O)Nc4ccc(C)cc4C)CC3)nc2cc1Br
-18%,COc1ccc(C(=O)c2coc3ccc(O)c(CN4CCCC4)c23)cc1
-5%,Nc1nc(NCc2cccs2)nn1-c1ccccc1
8%,CCCCc1nnc(NC(=O)C2CC(=O)N(c3ccc4c(c3)OCCO4)C2)s1 (stereo not drawn)
-6%,N#CC1=C(SCC(=O)Nc2ccccc2)NC(=O)CC1c1ccc(O)cc1 (stereo not drawn)
-8%,CC(=O)Nc1ccc(OCC(=O)NCCc2ccc(Cl)cc2)cc1
-6%,Cc1nc(N2CCC(C)CC2)c2c(C)c(C(=O)Nc3ccc(C(F)(F)F)cc3)sc2n1
0%,Cc1ccc(-n2cccn2)c(CN2CCCC(C(=O)c3ccc4c(c3)OCO4)C2)c1 (stereo not drawn)
-9%,O=C(CN1CCN(S(=O)(=O)c2ccc(Cl)cc2)CC1)NCC1(N2CCOCC2)CCCCC1
-10%,CCN(CC)c1ccc(NC(=O)CSc2nnc3nc(C)cc(C)n23)cc1
6%,O=C(Nc1nc(-c2ccc(F)c(F)c2)cs1)C1=COCCO1
-9%,CCOC(=O)C1=C(CS(=O)(=O)c2ccc(C)c(C)c2)NC(=O)NC1c1ccc(O)cc1 (stereo not drawn)
-12%,Cc1ccc(S(=O)(=O)NC(Cc2ccccc2)C(=O)NN)cc1 (stereo not drawn)

# Assay outcomes: PubChem BioAssay, National Center for Advancing Translational Sciences (NCATS)
